eIF4H inh = inhibitors of RNA binding by human eIF4H; Q15056; eIF4H fluorescence polarization binding assay; inhibition, % at 35 µM; 290,000 compounds, 0.94% hits;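 active = 50% or more with normal probe brightness, or confirmed in later tests; about a fifth of its hits are not listed in these tables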;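 note: calls also rest on retests at 20 µM and on dose response follow-up; 0% = protein and probe with vehicle and 100% = probe without protein; strong numbers were not always called active; many hits fall short of the cut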
MT1-MMP act inh = inhibitors of human MT1-MMP activation; GFP/RFP ratio change, % at 20 µM; P50281; HT1080 RFP-PRO-GFP cells, GFP/RFP ratio fluorescence, overnight; percent of plate control window, DMSO zero; 360,000 compounds, 0.061% hits;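 active = GFP/RFP ratio change of at least 30% with cell ATP level not reduced by more than half and red fluorescence within 50% of control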; note: strong numbers were not always called active
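Material: RFP-PRO-GFP reporter HT1080 cells. Dosing: single-point 20 µM compound, 1% DMSO. Controls: DMSO and RFP-L50D-GFP cell wells. Timing: cells overnight before dosing, compound overnight, 37 °C, 5% CO2. Measure: GFP/RFP fluorescence ratio.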
PABP FP inh = PABP-poly(A) binding inhibition. PABP-poly(A) RNA binding, fluorescence polarization. inhibition, % at 35 µM. 290,000 compounds, 1% hits. AID 2014. P11940;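 active = 50% or more with normal probe brightness, or confirmed in later tests; about a fifth of its hits are not listed in these tables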;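 note: calls also rest on retests at 20 µM and on dose response follow-up; controls were probe without protein and protein plus probe with vehicle; some compounds called inactive have numbers as strong as hits; many hits fall short of the cut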
Rce1 inhib = inhibitors of yeast Ras-converting enzyme. yeast membranes, quenched prenylated peptide cleavage fluorescence. calls only. 290,000 compounds, 0.27% hits;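 active = fall in fluorescence gain of 50% or more versus controls, with final raw signal at or below 3038400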;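 note: plate controls were neutral control wells for no effect and wells lacking membranes for full effect; tested at 10 µM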
Target sequence (Q03530 whole entry, looked up): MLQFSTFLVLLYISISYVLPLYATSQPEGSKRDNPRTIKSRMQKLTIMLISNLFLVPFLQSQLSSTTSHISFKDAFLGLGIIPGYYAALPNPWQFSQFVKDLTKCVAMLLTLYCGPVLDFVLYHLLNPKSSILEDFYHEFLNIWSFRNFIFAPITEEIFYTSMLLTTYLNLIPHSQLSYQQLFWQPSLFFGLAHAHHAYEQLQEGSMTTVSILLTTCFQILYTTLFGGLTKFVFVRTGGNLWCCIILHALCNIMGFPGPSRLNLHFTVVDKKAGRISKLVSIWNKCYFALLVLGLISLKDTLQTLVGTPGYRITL
CSC inhib = cancer stem cell inhibition; cancer stem cell-like cells viability, luminescence; inhibition, % at 7.5 µM; 300,000 compounds, 1.1% hits;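 active = mean at 75% or more and at least half the replicates too; tested in HMLE shEcad cells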;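 note: 0% = median of negative and 100% = median of positive control wells; the first replicate is given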
HIV Env fusion = blocks HIV Env-driven cell-cell fusion. inhibition, % at 12.3 µM. 360,000 compounds, 1.1% hits. HeLa-JRFL Env/CEM21 cell fusion, luciferase. AID 651610;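 active = mean replicate inhibition score of at least 50 and every replicate individually at or above 50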;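 note: 0% = plate neutral controls and 100% = maraviroc near 300 nM; one replicate is shown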
UUG fidelity = modulators of start codon recognition fidelity in yeast | activity score, % at 18.7 µM | S. cerevisiae UUG-firefly luciferase reporter, luminescence/redox ratio | 350,000 compounds, 0.13% hits;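 active = replicate mean at a twofold rise or more, about +100% in these data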;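 note: firefly luciferase made from a UUG start codon reports start codon fidelity; reporter light over untreated wells divided by growth signal over untreated wells; some hits fall short of that in this replicate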
eIF4H inh retest = second read-out of eIF4H inh, no call of its own (marks repeat the call); inhibition, %; compound at 20 µM; confirmation average;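 mean of two retest wells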
PABP FP inh retest = recorded beside PABP FP inh, whose call it bears; inhibition, %; compound at 20 µM; confirmation repeats;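 mean of two retest wells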
MT1-MMP act inh RFP = recorded beside MT1-MMP act inh, whose call it bears; RFP signal change, %; measured here: RFP expression control read;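 0 = vehicle wells; hits needed this value within 50% of zero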
* = called active by the depositor; i = inactive; · = not tested or not shown. A portion of the library; count on the stated rates, not on these rows.

SMILES	eIF4H inh	MT1-MMP act inh	MT1-MMP act inh RFP	PABP FP inh	Rce1 inhib	CSC inhib	HIV Env fusion	UUG fidelity	others
CCCNC(=S)N1CCC(Cc2ccccc2)CC1	-5	2	-2	9	i	0	2	-9
CCc1ccccc1NC(=O)CNCC(=O)Nc1ccccc1CC	0	3	-2	-15	i	-4	7	-1
CCc1ccc(-c2nc(CS(=O)CC(=O)NCc3ccco3)c(C)o2)cc1 (centres undefined)	32	-1	3	18	i	-12	16	9
Cc1ccc(C2(c3noc(CN(C)CC4COCCO4)n3)CCCC2)cc1 (centres undefined)	0	2	2	1	i	-2	18	·
OC(c1ccc(F)c(F)c1)c1ncc(-c2cccc(C(F)(F)F)c2)[nH]1 (centres undefined)	·	0	-3	·	·	·	-7	-19
CC(c1ccon1)N(C)Cc1cn(C)nc1-c1cccc(Cl)c1 (centres undefined)	-9	-1	-1	-4	i	7	5	·
Cc1ccc(C2SCC(=O)N2Cc2ccccc2)cc1 (centres undefined)	-4	3	1	-3	i	-1	2	-25
COc1cccc2c(=O)n(CC(=O)N3CCc4ccccc43)ccc12	-1	2	3	0	i	3	-27	-15
Cc1ccc(NC(NC(=O)Cc2ccccc2)C(Cl)(Cl)Cl)cc1 (centres undefined)	-3	0	-6	-1	·	·	20	-27
O=C(Nc1cc(S(=O)(=O)N2CCCC2)ccc1Cl)C1=COCCO1	-6	-2	1	1	i	14	26	-12
CC(C)(C)C(=O)CC1(O)C(=O)N(Cc2ccccc2)c2ccccc21 (centres undefined)	-5	-1	3	-3	i	-9	·	-18
CCOC(=O)CNC(=O)CN1C(=O)CCS(=O)(=O)c2ccccc21	-13	0	4	9	i	-12	·	3

Reprinted from the part before: two entries; new compounds follow.
SMILES	eIF4H inh	MT1-MMP act inh	MT1-MMP act inh RFP	PABP FP inh	Rce1 inhib	CSC inhib	HIV Env fusion	UUG fidelity	others
CC(C)(C)C(=O)CC1(O)C(=O)N(Cc2ccccc2)c2ccccc21 (centres undefined)	-5	-1	3	-3	i	-9	·	-18
CCOC(=O)CNC(=O)CN1C(=O)CCS(=O)(=O)c2ccccc21	-13	0	4	9	i	-12	·	3
CCCNC(=O)C/C(C)=N/NC(=O)COc1ccc(C)cc1Br	-4	2	8	4	i	-11	·	-7
CCOC(=O)C1(c2ccccc2)SC(C(=O)OCC)(c2ccccc2)S1 (centres undefined)	·	-6	-1	·	·	·	-13	2
COc1cc(/C=C2/CC(C)OC2=O)c([N+](=O)[O-])cc1OC (centres undefined)	-6	4	0	9	i	2	-10	-16
O=C(CN1C(=O)C2C3C=CC(C3)C2C1=O)Nc1ccc2c(c1)OCCO2 (centres undefined)	10	2	3	-8	i	-10	·	-11
CCOC(=O)c1ccc(OC)c(OC)c1Cl	8	2	0	-7	i	6	-11	·
Cc1ccc2nc(-c3ccccn3)[nH]c2c1	-10	0	1	2	i	30	-10	-70
COc1ccc(C)cc1NC(=O)C1CCN(S(=O)(=O)c2ccc3c(c2)NC(=O)CO3)CC1	-4	-2	-1	2	i	-1	3	-3
COc1ccc(N(CC(=O)NCCc2ccccc2)C(=O)c2csnn2)cc1	-4	-3	0	5	i	·	-3	-4
CC1(C)CC(=O)c2sc(NC(=O)c3ccc4ncsc4c3)nc2C1	1	-2	-2	6	i	12	-14	-9
COCCNC(=O)C1(C)CCCN(C(=O)c2cccc3ccccc23)C1 (centres undefined)	·	1	6	·	·	·	-12	-10
Cc1cc(=O)oc2cc(OCCCC[n+]3ccccc3)ccc12	-6	2	3	9	i	12	-22	·
CCN(CC)S(=O)(=O)c1ccc(OCC(=O)NCc2ccccc2)cc1	5	2	1	-5	i	·	·	-10
CCOC(=O)NNC(=O)CCn1c2c(c3ccccc31)CCCC2	2	-12	-9	1	i	-9	42	·
CCOC(=O)C1CCN(C(=O)c2ccc(OC3CCN(C(=O)CCOC)CC3)cc2)CC1	-8	4	3	0	i	-7	-17	-2
CCOC(=O)COc1ccc2cc(C(=O)OCC)c(=O)oc2c1	-2	2	-1	0	·	-11	·	-17
COC(CNC(=O)C1CC(=O)N(CCc2ccccc2)C1)OC (centres undefined)	9	0	-1	0	i	·	-53	8
O=C(NCN1CCN(c2ccccn2)CC1)c1cnccn1	2	1	1	9	i	2	·	-13
CCOc1ccc(N(CC(=O)NC2CCCC(C)C2C)S(=O)(=O)c2c(C)noc2C)cc1 (centres undefined)	-6	-10	-5	-16	i	-1	-20	-15
O=C(CCN1C(=O)/C(=C\c2cccs2)SC1=S)NC1=NCCS1	-7	3	2	7	i	-1	-9	-6
Cc1ccccc1C(=O)NNC(=O)CCCCC(=O)NNC(=O)c1ccccc1C	·	3	0	·	i	3	-1	·
COc1ccc(S(=O)(=O)Nc2nnc(C(C)C)s2)cc1	-1	2	3	0	i	-1	10	-13
CC(C)CN1CCC(=O)N([C@H](COc2ccccc2)Cc2ccccc2)CC1	-1	-4	0	9	i	24	4	-10
COc1ccc(C(=O)c2c(C)oc3ccc(O)cc23)cc1	-9	2	-3	-1	i	7	-1	-9
CN(C(=O)c1ccc(NC(=O)Cc2cccc(NC(=O)C3CCN(C(=O)C4CCCCC4)CC3)c2)cc1)C1CCCC1	·	3	4	·	·	-28	·	-12

Gathered by group, the entries above with a halogen (six)
SMILES	eIF4H inh	MT1-MMP act inh	MT1-MMP act inh RFP	PABP FP inh	Rce1 inhib	CSC inhib	HIV Env fusion	UUG fidelity	others
OC(c1ccc(F)c(F)c1)c1ncc(-c2cccc(C(F)(F)F)c2)[nH]1 (centres undefined)	·	0	-3	·	·	·	-7	-19
CC(c1ccon1)N(C)Cc1cn(C)nc1-c1cccc(Cl)c1 (centres undefined)	-9	-1	-1	-4	i	7	5	·
Cc1ccc(NC(NC(=O)Cc2ccccc2)C(Cl)(Cl)Cl)cc1 (centres undefined)	-3	0	-6	-1	·	·	20	-27
O=C(Nc1cc(S(=O)(=O)N2CCCC2)ccc1Cl)C1=COCCO1	-6	-2	1	1	i	14	26	-12
CCCNC(=O)C/C(C)=N/NC(=O)COc1ccc(C)cc1Br	-4	2	8	4	i	-11	·	-7
CCOC(=O)c1ccc(OC)c(OC)c1Cl	8	2	0	-7	i	6	-11	·

Continuation.
SMILES	eIF4H inh	MT1-MMP act inh	MT1-MMP act inh RFP	PABP FP inh	Rce1 inhib	CSC inhib	HIV Env fusion	UUG fidelity	others
Cc1ccc2oc(-c3ccc(NC(=O)c4ccc5c(c4)OCO5)cc3)nc2c1	-1	-2	-8	-6	i	8	24	-16
CCC(C)n1nnc2c(=O)oc3ccccc3c21 (centres undefined)	-9	5	-1	9	i	-5	·	-11
Cc1ccc(Nc2nnc(SC3CCOC3=O)s2)cc1 (centres undefined)	-8	-1	0	-25	i	·	-14	·
C/C(=N/NS(=O)(=O)c1ccc(Cl)cc1)c1ccc2c(c1)OCO2	·	1	-2	·	·	-3	2	-12
O=C(/C=C/c1ccc(S(=O)(=O)N2CCOCC2)cc1)OCC(=O)c1ccc([N+](=O)[O-])cc1	2	10	6	-1	i	-12	4	14
Cc1ccc(NS(=O)(=O)c2ccc(Br)s2)cc1S(=O)(=O)N1CCOCC1	2	4	-3	-1	i	7	18	-18
Cc1nc(N)sc1-c1nnc(SCC(=O)Nc2nccs2)n1C	-4	2	1	4	i	17	·	0
CCOc1cc(/C=C2\SC(=N)N(c3nonc3N)C2=O)ccc1OCC(N)=O	24	2	7	-22	i	-3	1	5
O=C1CSC(c2cn(-c3ccccc3)nc2-c2cccs2)N1CC1CCCO1 (centres undefined)	0	-10	-12	-11	i	·	·	-9
O=C(COC(=O)CNC(=O)c1ccco1)Nc1ccccc1OC(F)F	-5	0	4	11	i	-3	-15	-9
Nc1nc(SCC(=O)NCCO)nc2sc3c(c12)CCCC3	-12	-2	-1	-1	i	15	-17	·
Cc1ccc(C(=O)CSc2ncn[nH]2)cc1	8	-7	-1	4	i	0	-10	-14
CSC1=NCCN1C(=O)C(C)Oc1ccccc1 (centres undefined)	-10	-3	6	2	i	-10	-28	-7
COc1ccc(-c2cn(Cc3ccc(C(N)=O)cc3)c(CCN)n2)cc1	·	-3	-2	·	·	-5	-8	-14
CC1CC(C)CN(C(=O)c2ccc(-c3ccc([N+](=O)[O-])cc3)o2)C1 (centres undefined)	·	1	-6	·	i	46	-40	-3
CCOc1ccc(CCNC(=O)COC(=O)c2cc(=O)[nH]c3ccccc23)cc1OCC	·	-7	-1	·	i	-9	-6	-11
COc1ccc(OC)c(-n2nnnc2SCC(=O)Nc2ccc(C(=O)N3CCCCC3)cc2)c1	6	-5	-10	-6	i	2	·	-16
CC1(C)CC2(CC(c3ccccc3F)c3cc(Cl)c(O)cc3O2)NC(=S)N1 (centres undefined)	-2	-9	-15	0	i	16	29	·
COc1ccccc1CNC(=O)C/C(C)=N/NC(=O)Cc1ccccc1	-1	5	1	8	i	-1	-44	·
COc1ccc(COC(=O)c2ccc(S(=O)(=O)N3CCC(C)CC3)cc2)cc1	-12	0	-4	-4	i	2	·	-8
Cc1cc[n+](CC(=O)c2cccs2)cc1	14	3	4	67	i	-5	·	-22	eIF4H inh retest=-4;PABP FP inh retest=4
O=C(Nc1ccccc1-c1nnn(CC(=O)N2CCc3ccccc3C2)n1)C1CCC1	2	4	1	1	i	-2	·	4
NC(=O)CNC(=O)[C@@H]1CC2(CC(c3ccc(Cl)cc3)=NO2)CN1C(=O)c1ccc(Br)cc1 (some centres undefined)	4	-1	-1	1	i	-4	-41	-34
O=C(NC1CCCCCCC1)c1cccc(Cl)c1	4	-2	1	-4	i	·	-9	1
O=C(CNCCC1=CCCCC1)Nc1ccccc1N1CCCCCC1	9	-6	-15	12	i	41	45	15
COc1ccc(N/N=C(/C(C)=O)N2CCCc3ccccc32)cc1	4	-6	-7	1	i	88*	-56	·
COc1ccc(C(=O)NC(=O)COC(=O)CCS(=O)(=O)c2ccc(C)cc2)cc1	·	4	5	·	·	·	1	-22
COc1cccc(-c2ccc(=O)n(CC(=O)Nc3ccc(S(=O)(=O)NCC(C)C)cc3)n2)c1	1	·	·	-16	i	-10	1	·
CC[C@@H](C)[C@@H]1CN([C@@H](CN2CCC[C@H]2CN2C(N)=NC[C@H]2C(C)C)C(C)C)C(=N)N1CCCC1CCCC1	·	6	7	·	·	-9	17	4
COC(=O)c1ccc(COC(=O)C(NC(=O)Cc2ccccc2)C(C)C)cc1 (centres undefined)	·	-1	1	·	·	·	6	26
COc1cc(/C=C2\C=CC(=O)O2)cc(OC)c1	-10	-7	-8	-16	i	-19	-18	9
COc1ccc(-n2c(-c3ccc(OC)c(OC)c3)n[nH]c2=S)cc1	8	3	1	5	i	-6	9	-4
COC(=O)CSc1nc(N)nc(C)c1Br	-4	0	3	5	·	-12	·	-11
Cc1cc2n(n1)C(c1cn(-c3ccccc3)nc1C)Nc1ccccc1-2 (centres undefined)	-7	0	-4	-2	i	2	-72	1
O=[N+]([O-])c1cc(C(F)(F)F)ccc1Sc1ccccn1	-4	3	2	4	i	54	-7	·
C/C(=N/NC(=O)CCc1ccccc1)c1ccc2c(c1)OCO2	0	2	-2	8	i	-5	-4	-18
CCCN1CCC(=O)N([C@H](COc2ccccc2)CC(C)C)CC1	2	2	7	-14	i	4	-30	-16
Cn1c(C(=O)NCCN2CCc3ccccc3C2)cc2c(=O)n(C)c3ccccc3c21	15	7	0	4	i	13	-15	0
O=C(Nc1ccccc1C(=O)N1CCCC1)c1ncoc1-c1cccc(Cl)c1	0	-4	1	14	i	10	6	-2
CCCCOc1cccc(C2(C(=O)O)CCCC2)c1	-9	0	7	-6	·	-6	·	-10
Cc1ccc(-n2cc(CNCCCn3cccn3)c(-c3cccc(C)c3)n2)cc1	0	-12	-15	3	i	13	26	-4

Assay outcomes deposited in PubChem BioAssay by several laboratories.
